# Menin-MLL FL inh = displaces fluorescein MLL peptide from human menin; 290,000 tested, under 10 active; FP activity change, % at 61.4 µM; Fluorescence polarization, fluorescein-MLL peptide displacement from menin; inconclusive = falling polarisation curve, or a change in total fluorescence; inactive = total fluorescence flat and polarisation flat or rising; no compound was filed as active; the % refers to the polarisation; negative = inhibition;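 also: % of control where 0% means no effect; inhibitors lower the polarisation; unlabelled MLL peptide was the positive control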
# Active calls of the source: *; u = inconclusive; & = joins results of further samples; [ ] = dose if it differs, or a comment. Some of the compounds tested; count on the stated rates, not on these rows.
Menin-MLL FL inh | structure
2.5[11.7 µM] | C[C@H](NC(=O)N1CCc2nc(COc3ccccc3)c3c(c2C1)CO[C@@H](C)C3)c1ccccc1
1.5 | Cc1nn(Cc2ccccc2Cl)c(C)c1NC(=O)CSc1n[nH]c(C)c1[N+](=O)[O-]
2.2 | CCOc1cccc(/C(O)=C2/C(=O)C(=O)N(CCN3CCOCC3)C2c2ccncc2)c1 (stereo not given)
u | COc1ccc(-n2c(=O)c(-c3cccs3)nc3cnc(N4CCN(C)CC4)nc32)cc1
-1.0 | CCc1c(C)nc(N)n2c(SCC(=O)N3CCN(c4ccccc4OC)CC3)nnc12
u | COC(=O)N1c2ccccc2C23[C@@H]4CN5CCC[C@]6(CCC12C(O)(C6)C4=O)[C@H]53
7.0[11.7 µM] | COc1ccc(O[C@H]2C=C[C@@H](c3ccccc3)O[C@@H]2CO/N=C(\C)CCN2CCCCc3nc(C)c(C)cc32)cc1
0.6 | CC(=O)N1CCN(c2ccc(NC(=S)NC(=O)/C=C/c3ccccc3)cc2)CC1
8.8 | CC(=O)N(O)[C@@H]1c2cc(C#N)ccc2OC(C)(C)[C@H]1O
-3.7 | CN(Cc1ccccc1)Cc1ccccc1
2.2 | COc1ccccc1N1C(=O)C2ON(c3ccccc3)C(c3ccc(N(C)C)cc3)C2C1=O (stereo not given)
-3.9 | COc1cccc(C2=Nn3c(nnc3-c3ccccc3C)SC2)c1
-2.2 | COCCn1c(=O)c(-c2ccc(F)cc2)nc2cnc(Oc3ccc(OC)cc3)nc21
0.6 | O=C(c1cc(C(F)(F)F)cc(C(F)(F)F)c1)N1CCC2(CCCN(Cc3ccccc3)C2)CC1
3.3 | CCOC(=O)c1c(C)[nH]c(C(=O)Nc2ccc(C)c(Cl)c2)c1C
-21.8 | N#Cc1ccc(CN2CCC3(CC2)CCN(S(=O)(=O)c2ccccc2)CC3)cc1
-1.4[11.7 µM] | COC(=O)C/C=C\[C@@H](C)[C@H]1C=C[C@H](O)[C@@H](CO)O1
-28.4 | COCCn1c(=O)cnc2cnc(OC)nc21
2.2 | CCC[C@@H]1C[C@@H](C(=O)N[C@@H]([C@H]2O[C@H](SC)[C@H](O)[C@@H](O)[C@H]2O)[C@@H](C)O)N(C)C1
-3.0 | COc1cccc(-c2cncnc2NCc2cnc(C)cn2)c1

# Sorted by value in Menin-MLL FL inh (low to high): three from the list above.
SMILES,Menin-MLL FL inh
COc1cccc(C2=Nn3c(nnc3-c3ccccc3C)SC2)c1,-3.9
Cc1nn(Cc2ccccc2Cl)c(C)c1NC(=O)CSc1n[nH]c(C)c1[N+](=O)[O-],1.5
CC(=O)N(O)[C@@H]1c2cc(C#N)ccc2OC(C)(C)[C@H]1O,8.8

# Following part.
Menin-MLL FL inh | structure
-2.4 | CC1(O)CC2C(CC1O)C2(C)C (stereo not given)
-1.8 | CS(=O)(=O)N1CCC[C@@]2(CCN(Cc3ccccc3)C2)C1
3.0 | Cn1c(=O)c2[nH]c(-c3ccccc3O)nc2n(C)c1=O
-0.5 | NCCC[C@@H](CC(=O)N[C@@H]1CCNC[C@H]1C(=O)N[C@H](CC(=O)N[C@@H](CCC(=O)O)CC(=O)O)Cc1ccccc1)NC(=O)C[C@H](Cc1ccccc1)NC(=O)[C@@H]1CNCC[C@H]1N
u | Nc1ccc2cc3ccc(N)cc3nc2c1
1.0 | O=C1Nc2ccc(Br)cc2C1=Nc1ccc(-c2nnc3n2CCCCC3)cc1
-2.8[11.7 µM] | Nc1ccccc1C(=O)/C=C\c1ccc2c(c1)OCO2
2.7 | CC(C)(C)c1ccc(CN2CCN([C@H](c3ccccc3)c3ccc(Cl)cc3)CC2)cc1
-1.1 | c1ccc(C(NCc2cccnc2)(c2ccccc2)c2ccccc2)cc1
-1.2 | COC(=O)N[C@@H](c1cccc(F)c1)C(C(C)=O)C(=O)OC (stereo not given in full)
-0.9 | CCOC(=O)N1CCC(NC(=O)C(NC(=O)C2CCCCC2)C(C)C)CC1 (stereo not given)
1.3 | CN(C)c1nc(NCc2ccccc2)nc(N/N=C/c2ccccc2F)n1
2.2 | Cc1sc(NC(=O)CN(C)C2CCCCC2)nc1-c1ccc2c(c1)CCN2S(=O)(=O)c1ccccc1
0.7 | COc1ccc2oc(=O)c(C(=O)OCC(=O)c3ccc([N+](=O)[O-])cc3)cc2c1
6.4 | Cc1ccc(C)c(NC(=O)c2ccccc2C(=O)c2ccccc2)c1
1.7 | Cc1nnc(NC(=O)CSc2ccc(-c3ccccn3)nn2)s1
-2.0 | CC(O)COc1ccccc1 (stereo not given)
1.9 | CCOC(=O)c1cnn(-c2nc(C)nc3sc4c(c23)CCC4)c1N
1.5 | OC[C@@H](O)[C@@H](O)CCc1ccccc1
-0.5 | CCCc1nc(SCC(=O)c2ccc(OC)cc2)c2c(=O)n(C)c(=O)n(C)c2n1

# Some of the entries so far, tab-delimited.
structure	Menin-MLL FL inh
O=C(c1cc(C(F)(F)F)cc(C(F)(F)F)c1)N1CCC2(CCCN(Cc3ccccc3)C2)CC1	0.6
CCOC(=O)c1c(C)[nH]c(C(=O)Nc2ccc(C)c(Cl)c2)c1C	3.3

# Returning to the listing, repeating the five entries before the break.
Menin-MLL FL inh | structure
1.7 | Cc1nnc(NC(=O)CSc2ccc(-c3ccccn3)nn2)s1
-2.0 | CC(O)COc1ccccc1 (stereo not given)
1.9 | CCOC(=O)c1cnn(-c2nc(C)nc3sc4c(c23)CCC4)c1N
1.5 | OC[C@@H](O)[C@@H](O)CCc1ccccc1
-0.5 | CCCc1nc(SCC(=O)c2ccc(OC)cc2)c2c(=O)n(C)c(=O)n(C)c2n1
0.3[11.7 µM] | CCCCc1nc2c(c3c1C[C@H](C)OC3)CN(C(=O)Cc1cccc(OC)c1)CC2
-1.1 | COc1cc(-c2coc3cc(OCc4ccccc4)c(OC)c(O)c3c2=O)cc(O)c1OC
-2.1[11.7 µM] | CO[C@@H]1COC(=O)[C@H](C)NC(=O)C/C=C\[C@@H](C)[C@H](OC)COC(=O)[C@H](C)NC(=O)C/C=C\[C@H]1C
u | COc1cccc(Cn2c(=O)c(-c3cccs3)nc3cnc(N4CCN(C)CC4)nc32)c1
1.9 | CC(C)(C)c1ccc(C(CC(=O)O)NC(=O)Cc2ccc(F)cc2)cc1 (stereo not given)
-8.9 | CC(C)[C@@H](CC(=O)N[C@@H]1CCCC[C@H]1C(=O)N[C@H](CC(=O)N[C@@H](CCC(=O)O)CC(=O)O)Cc1c[nH]c2ccccc12)NC(=O)C[C@H](Cc1c[nH]c2ccccc12)NC(=O)[C@@H]1CNCC[C@H]1N
6.3 | C/C(N)=C(/C#N)C(=O)CSc1nc2ccccc2c(=O)n1-c1ccc(C)cc1
-6.3 | COC(=O)c1ccc(C(NC(=O)OCc2ccccc2)/C(=C/[C@@H](C)C(=O)NCc2ccccc2)c2cccnc2)cc1 (stereo not given in full)
-0.7 | CN(C)C(=O)[C@H]1C[C@@H]1[C@H](NC(=O)OCc1ccccc1)c1ccccc1
-4.1 | NOCc1ccccc1
4.9 | C[C@@](N)(Cc1ccc(O)c(O)c1)C(=O)O
-0.2 | Cc1ccc(C(=O)N2CCN(c3ncnc4c(-c5ccccc5)nsc34)CC2)cc1
-0.6 | Cc1ccc(CN2C(=O)N/C(=C/c3ccc4c(c3)n(C)c(=O)n4C)C2=O)cc1
6.2 | c1ccc(CNc2ncncc2-c2ccoc2)cc1
-16.0 | COC(=O)C[C@](O)(CCCC(C)(C)O)C(=O)O[C@@H]1C(OC)=C[C@]23CCCN2CCc2cc4c(cc2[C@H]13)OCO4
-22.6[11.7 µM] | CCN1C(=O)[C@@H]2[C@H]3C(=CC[C@H]2C1=O)C(=O)[C@H]1OC1[C@H]3O (stereo not given in full)
2.7 | CO/N=C(/C(=O)N[C@@H]1C(=O)N2C(C(=O)O)=CCS[C@H]12)c1csc(N)n1
2.0 | COc1ccccc1-c1cc(Nc2ccc(F)cc2)ncn1
-1.3 | COC(=O)c1ccc(C(NC(=O)OCc2ccccc2)/C(F)=C/[C@@H](C)C(=O)NC2CCCCC2)cc1 (stereo not given in full)
-3.1 | C#CCOCCOCCOCCNc1nc(N2CCN(C(=O)[C@H](CCC(=O)O)n3cc(C(N)Cc4ccc(O)cc4)nn3)CC2)nc(N2CCN(C(=O)[C@H](Cc3ccc(O)cc3)n3cc(C(N)[C@H](C)CC)nn3)CC2)n1 (stereo not given in full)
1.8 | CCCCCCCCCCCCCCCCCC(=O)OCC(C)O (stereo not given)
0.8 | CCCn1c(-c2ccc(F)cc2)nc2c(NCC3CCN(C)CC3)nc(C)nc21
1.2 | Cc1ccnn2c(-c3ccccc3)c3c(=O)n(C)c(=O)n(C)c3c12
-4.5 | O=C(Nc1cccc(F)c1)N1CCCC2(CCN(C(=O)c3cccc(F)c3)CC2)C1
-3.0 | COCC(=O)N1CCC[C@@]2(CCN(c3ccccn3)C2)C1
-9.3 | COc1ccccc1CN1CCC2(CC1)CCN(C(=O)c1cccn1C)CC2
3.7 | CNC(=O)[C@H](C)/C=C(\c1cccnc1)C(NC(=O)OCc1ccccc1)c1ccc(C(=O)OC)cc1 (stereo not given in full)
27.9 | C=C1C(=O)OC2C[C@@]3(C)CCCC(=C)[C@@H]3CC12 (stereo not given in full)
7.0 | OCC1OC(n2cnc3c(Cl)nc(Cl)nc32)C(O)C1O (stereo not given)
0.0 | CC(C)(Oc1ccc(C2CCCc3ccccc32)cc1)C(=O)O (stereo not given)
3.4 | COC(=O)c1c(-c2ccc(C)cc2)csc1NC(=O)c1c(-c2ccccc2)noc1C
-4.4 | CC(C)(C)OC(=O)NCCCCC1=CC2=CC(=O)C(C)(OC(=O)C3CCCC3)C(=O)C2=CO1 (stereo not given)
-2.2 | CCC(C)C(NC(N)=O)C(=O)NC1CCC(C)CC1 (stereo not given)
-8.4 | CC(=O)N1CCC2(CCN(Cc3ccncc3)CC2)CC1
-2.8 | COc1ccc(NC(=O)N2CCC3(CC2)CCN(S(C)(=O)=O)CC3)cc1
-1.5 | COc1ccc2[nH]cc(CCNc3ccnc(-c4ccc(C(=O)N(C)C)cc4)n3)c2c1
-19.0[11.7 µM] | O=C1CCC[C@H]2OC12[C@@H](O)CCc1ccccc1 (stereo not given in full)
-3.9 | O=C(c1cccc(F)c1)N1CCC2(CC1)CN(c1ncccn1)C2
u | Cn1cc(-c2nc3cnc(N4CCNCC4)nc3n(C)c2=O)c2ccccc21
2.1 | CCOC(=O)c1ccc(O)cc1

# 3 structures from above, arranged by SMILES length, falling:
Menin-MLL FL inh | structure
-4.4 | CC(C)(C)OC(=O)NCCCCC1=CC2=CC(=O)C(C)(OC(=O)C3CCCC3)C(=O)C2=CO1 (stereo not given)
-0.7 | CN(C)C(=O)[C@H]1C[C@@H]1[C@H](NC(=O)OCc1ccccc1)c1ccccc1
-2.2 | COCCn1c(=O)c(-c2ccc(F)cc2)nc2cnc(Oc3ccc(OC)cc3)nc21

# (listing goes on)
Menin-MLL FL inh | structure
3.3 | Cc1occc1-c1nnc(SCC(=O)N2CCN(c3ccccc3F)CC2)n1C
-2.9[11.7 µM] | COc1ccc(OC2C=CC(c3ccccc3)OC2CO)c(C(C)=O)c1 (stereo not given)
u | C[C@@H]1CNCCN1S(=O)(=O)c1cccc2cnccc12
-1.0[11.7 µM] | C[C@H]1Cc2c(COc3ccccc3)nc3c(c2CO1)CN(C(=O)Nc1cccc(C#N)c1)CC3
-2.0 | COc1ccc(-c2nc3cnc(N4CCNCC4)nc3n(Cc3cccc(OC)c3)c2=O)cc1
7.1 | CC1C/C=C/C=C/C=C/C=C/C(O[C@@H]2O[C@H](C)[C@@H](O)[C@H](N)[C@@H]2O)CC2OC(O)(CC(O)CC3OC3/C=C/C(=O)O1)CC(O)C2C(=O)O (stereo not given in full)
-2.3 | O=c1c(-c2ccc(F)c(F)c2)nc2cncnc2n1C1CC1
9.4 | CNc1cc2c(Nc3cccc(Br)c3)ncnc2cn1
3.5 | Cn1cccc1C(=O)N1CCC[C@@]2(CCN(Cc3nccs3)C2)C1
-0.3 | CCOC(=O)N1c2ccccc2C=CC1OCC (stereo not given)
1.2 | COC(=O)c1ccccc1NC(=O)C/C(C)=N/NC(=O)Cc1ccc(Cl)cc1
1.3&0.8[11.7 µM] | CO[C@H]1COC(=O)C/C=C\[C@@H](C)COC(=O)[C@@H](CCSC)NC(=O)C/C=C\[C@@H]1C
u | COc1cc(/C=C(\C#N)c2nc3c(s2)CCCC3)ccc1O

# Bioassay records deposited in PubChem BioAssay by National Center for Advancing Translational Sciences (NCATS).
